Mtb H37Rv = Mycobacterium tuberculosis H37Rv growth inhibition, cell based, confirmatory dose response (AID 1949); most inactive calls were filed without a number and no value below 0 was filed; inhibition, % at 10 µg/mL, or IC50 in µg/mL where a hit was titrated; M. tuberculosis H37Rv growth inhibition; 100,000 tested, 1.6% active;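 active = confirmed in a dose series; inconclusive = about 50% or more but not retested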;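 also: bacteria grown 7 days with compound before Alamar blue readout; 0% = untreated bacteria and 100% = reference antibiotic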
The depositor's hits bear a star; i = inactive; u = inconclusive. An excerpt. The share of hits here may be higher or lower than overall.

(1) N#Cc1ccc(NC(=O)c2cnn3cccnc23)cc1
  Mtb H37Rv: i

(2) CC(=O)c1ccc(NC(=O)COc2ccccc2C(=O)Nc2ccc(C)cn2)cc1
  Mtb H37Rv: i

(3) Cc1cc(=O)[nH]c2c1c(C)nn2C1CCOC(C)(C)C1 (stereo not given)
  Mtb H37Rv: 0.5%

(4) Cc1ccc(C2=NN(C(=O)CCCC(=O)O)C(c3ccc4c(c3)OCO4)C2)cc1 (stereo not given)
  Mtb H37Rv: 2.7%

(5) O=C(COc1ccccc1Cl)Nc1ccc(S(=O)(=O)N2CCCCCC2)cc1
  Mtb H37Rv: i

(6) CCOc1cc(-c2ccc(N)c(OCC)c2)ccc1N
  Mtb H37Rv: i

(7) CCC(=O)NC(=S)Nc1cc(-c2cc3ccccc3oc2=O)ccc1OC
  Mtb H37Rv: i

(8) COc1cc(=O)[nH]c(SCc2ccccc2)n1
  Mtb H37Rv: i

(9) O=C(CN1C(=O)c2ccccc2S1(=O)=O)Nc1ccc(S(=O)(=O)N2CCCCC2)cc1
  Mtb H37Rv: i

(10) CCc1nc(SCC(=O)Nc2ccc(Br)cc2)n[nH]1
  Mtb H37Rv: 3.4%

(11) O=C(Nc1ccc(Cl)c(Cl)c1)Nc1ccc2c(c1)OCCO2
  Mtb H37Rv: 3.8%

(12) Cc1ccc(OCCSc2n[nH]c3nc4ccccc4n23)cc1
  Mtb H37Rv: 46.5%

(13) COC(=O)C1=C(C)NC2=C(C(=O)CC(c3cccs3)C2)C1c1ccc(-c2ccccc2)cc1 (stereo not given)
  Mtb H37Rv: i

(14) Cc1cc(OCCCN2CCNCC2)cc(C)c1Cl
  Mtb H37Rv: i

(15) O=C1C=CC(=NS(=O)(=O)c2ccc(Br)cc2)C=C1
  Mtb H37Rv: i

(16) O=C(NNC(=O)c1cc(Br)ccc1O)Nc1ccc(F)cc1F
  Mtb H37Rv: i

(17) S=C(NC1CCCC1)N1CCN(Cc2ccc3c(c2)OCO3)CC1
  Mtb H37Rv: i

(18) Cn1c(SCc2ccccc2C#N)nnc1-c1ccc([N+](=O)[O-])cc1
  Mtb H37Rv: i

(19) CCCC(=O)Nc1ccccc1NC(=O)c1ccccc1I
  Mtb H37Rv: i

(20) O=C(COc1ccc(Cl)cc1Cl)NC(=S)Nc1ccc(C(=O)O)c(Cl)c1
  Mtb H37Rv: i

(21) COCCNC(=S)NNC(=O)c1cc2ccccc2cc1O
  Mtb H37Rv: 0.4%

(22) O=C(/C=C/c1cc(Cl)ccc1Cl)Nc1ncc(Cc2cccc(C(F)(F)F)c2)s1
  Mtb H37Rv: i

(23) COc1cccc(OCCCn2ccnc2)c1
  Mtb H37Rv: i

(24) CCOC(=O)c1c(NC(=O)c2ccc(Cl)c(Cl)c2)sc(C(=O)Nc2ccccc2OC)c1C
  Mtb H37Rv: i

(25) Clc1ccccc1CNc1nc2ccccc2n1CCN1CCOCC1
  Mtb H37Rv: i

(26) COc1ccc(C(=O)Nc2ccc3oc(-c4ccc(F)cc4)nc3c2)cc1
  Mtb H37Rv: 0.2%

(27) O=C(CC(O)(C(F)(F)F)C(F)(F)F)Nc1cccc2ccccc12
  Mtb H37Rv: 6.0%

(28) O=C1OCCC1Sc1nnnn1-c1ccccc1 (stereo not given)
  Mtb H37Rv: 1.6%

(29) CCN(c1ccccc1)S(=O)(=O)c1ccc(NC(=O)COc2ccc(Cl)c(C)c2)cc1
  Mtb H37Rv: i

(30) COc1cc(NC(=S)NC(C)c2cn(C)nc2C)cc(OC)c1 (stereo not given)
  Mtb H37Rv: i

(31) CC(C)(C)NC(=S)NC(=O)C12CCC3CC(CC(C3)C1)C2
  Mtb H37Rv: 1.0%

(32) Cc1cc(OCC(=O)Nc2cccc(F)c2)cc(C)c1Br
  Mtb H37Rv: 2.7%

(33) FC(F)(F)c1cccc(OCCOCCn2cncn2)c1
  Mtb H37Rv: i

(34) COc1ccccc1NC(=O)c1sc2ncn(C(C)C(=O)OCc3ccccc3)c(=O)c2c1C (stereo not given)
  Mtb H37Rv: i

(35) CC(=O)c1cnc2c(-c3ccc(Cl)cc3)cnn2c1C
  Mtb H37Rv: 5.3%

(36) COC(=O)c1c(NC(=O)CSc2ncnc3sc(C)c(C)c23)sc(C)c1C
  Mtb H37Rv: i

(37) Cc1cc(C)cc(NC(=S)NCC(O)c2ccccc2)c1 (stereo not given)
  Mtb H37Rv: 5.7%

(38) C/C(=N\N=C1\NC(=O)C(CC(=O)Nc2ccc(Cl)cc2Cl)S1)C(C)C (stereo not given)
  Mtb H37Rv: i

(39) CC(C)(C)c1nc(CN2CCOCC2)ccc1O
  Mtb H37Rv: 6.8%

(40) COc1ccc(CC(=O)N2CCC(c3ccccc3)C2)cc1 (stereo not given)
  Mtb H37Rv: i

(41) C=CCOc1ccc(CNCCc2ccc(S(N)(=O)=O)cc2)cc1
  Mtb H37Rv: i

(42) COc1ccc(CNC(=O)c2ccc(OC(C)C)cc2)cc1
  Mtb H37Rv: 5.4%

(43) Cc1ccc(F)c(S(=O)(=O)NCCOc2ccccc2Cc2ccccc2)c1
  Mtb H37Rv: 11.0%

(44) COc1ccc(NS(=O)(=O)c2cc(C(=O)Nc3ccccc3)ccc2Br)cc1
  Mtb H37Rv: i

(45) COc1ccc(CCNC(=O)c2oc(-c3cc(Cl)ccc3Cl)cc2C)cc1OC
  Mtb H37Rv: i

(46) CCOC(=O)c1c(C2COc3ccccc3O2)csc1N (stereo not given)
  Mtb H37Rv: i

(47) Cc1occc1C(=O)NC(C)C(C)(C)C (stereo not given)
  Mtb H37Rv: i

(48) CCSc1nnc(NC(=O)c2ccc(Br)s2)s1
  Mtb H37Rv: 25.3%

(49) CS(=O)(=O)N(CC(=O)Nc1ccc(CC#N)cc1)c1cccc(F)c1
  Mtb H37Rv: i

(50) COc1ccccc1C(CC(=O)NC1CCOC(C)(C)C1)c1ccc(OC(C)C)cc1 (stereo not given)
  Mtb H37Rv: i

(51) CCOC(=O)c1cc(-c2ccccc2)sc1NC(=S)Nc1cc([N+](=O)[O-])ccc1OC
  Mtb H37Rv: i

(52) C=CCNc1cnn(Cc2ccccc2)c(=O)c1Cl
  Mtb H37Rv: i

(53) CCOc1ccccc1OCC(=O)Nc1cccc(C(F)(F)F)c1
  Mtb H37Rv: 7.5%

(54) Cc1ccc(S(=O)(=O)CCSc2cccc(C(=O)O)c2)cc1
  Mtb H37Rv: 5.1%

(55) CCOc1cc(NC(=O)c2ccccc2)c(OCC)cc1NC(=O)CCc1ccccc1
  Mtb H37Rv: 3.3%

(56) COc1ccc(-c2c3c(=O)n(C)c(=O)n(C)c3cn2NC(C)=O)cc1
  Mtb H37Rv: i

(57) O=C(Nc1ccc(-c2noc(-c3ccc(F)cc3)n2)cc1)c1ccncc1
  Mtb H37Rv: i

(58) COc1ccccc1CC(=O)Nc1ccc(Nc2ccccc2)cc1
  Mtb H37Rv: 1.1%

(59) COc1ccc(CC(=O)N(Cc2ccccc2)C(C)C)cc1
  Mtb H37Rv: 12.2%

(60) CCOc1ccc(NC(=O)CSc2nnc(NC(=O)c3ccccc3C)s2)cc1
  Mtb H37Rv: i

Continuation:
#	Molecule	Mtb H37Rv
61	CCCc1[nH]nc2c1C(c1ccc(OC(=O)c3ccco3)cc1)C(C#N)=C(N)O2 (stereo not given)	i
62	O=C(Nc1nccs1)c1ccccc1NC(=O)C(F)(F)F	i
63	Cc1cc(OCC(O)CN2CCN(c3cccc(Cl)c3)CC2)ccc1Cl (stereo not given)	15.4%
64	O=C(C1CCC(Cn2c(=S)[nH]c3ccccc3c2=O)CC1)N1CCN(c2ccccc2)CC1 (stereo not given)	u
65	O=C(NCc1ccc(F)cc1)c1ccc2nccnc2c1	i
66	COc1cccc(-c2noc(CCCC(=O)N3CCOCC3)n2)c1	1.7%
67	O=C(Nc1nnc(-c2cccc([N+](=O)[O-])c2)s1)C1CCCCC1	i
68	Cc1c(Cl)cccc1NC(=S)NCCc1c[nH]c2ccccc12	i
69	CCn1nnc(NC(=O)c2sc3ccccc3c2Cl)n1	3.02µg/mL*
70	COc1cc(NC(=O)C(Cl)Cl)c(OC)cc1Cl	2.68µg/mL*
71	COC(=O)CNC(=O)c1ccc(S(=O)(=O)N2CCCC2)cc1	i
72	COc1ccc(C(=O)NC(=S)Nc2cccc(NC(=O)c3cccc(Cl)c3)c2)cc1OC	i
73	Cc1ccc(C(=O)Nc2ccc(N3CCN(C(=O)C(C)C)CC3)cc2)c(C)c1	i
74	Oc1ccccc1C=Nn1c(-c2ccc(Cl)cc2Cl)n[nH]c1=S	i
75	CCOc1ccccc1N1C(=O)CC(Sc2nc(-c3ccccc3)c3cc(Cl)ccc3n2)C1=O (stereo not given)	i

Among those listed so far, these have a COOH group.
#	Molecule	Mtb H37Rv
4	Cc1ccc(C2=NN(C(=O)CCCC(=O)O)C(c3ccc4c(c3)OCO4)C2)cc1 (stereo not given)	2.7%
20	O=C(COc1ccc(Cl)cc1Cl)NC(=S)Nc1ccc(C(=O)O)c(Cl)c1	i
54	Cc1ccc(S(=O)(=O)CCSc2cccc(C(=O)O)c2)cc1	5.1%

New compounds follow:
#	Molecule	Mtb H37Rv
76	CC(C)C(=O)NC(=S)Nc1ccc(-c2nc3ccccc3s2)c(Cl)c1	i
77	COc1cccc(OCCNS(=O)(=O)c2cccc([N+](=O)[O-])c2)c1	i
78	CC1CCc2c(sc(NC(=O)c3cccnc3)c2C(=O)Nc2cccc(Cl)c2)C1 (stereo not given)	0.7%
79	CC(C)c1ccc(C(=O)NCCC2=CCCCC2)cc1	4.5%
80	COc1ccc(C(=O)NCCCOC(C)C)c(OC)c1	i
81	O=C(NNC(=S)NC1CCCCC1)c1ccc(Br)o1	i
82	Cc1cc(Br)cc(Cl)c1OCCCNCCN(C)C	27.2%
83	Cc1ccc(S(=O)(=O)N(CC(O)Cn2cc(C=O)c3ccccc32)CC2CCCO2)cc1 (stereo not given)	1.8%
84	COc1ccccc1CCNC(=O)c1cnn2c(C(F)F)cc(-c3ccccc3)nc12	2.5%

Gathered by group: the entries above with four or more nitrogen atoms (17)
#	Molecule	Mtb H37Rv
1	N#Cc1ccc(NC(=O)c2cnn3cccnc23)cc1	i
10	CCc1nc(SCC(=O)Nc2ccc(Br)cc2)n[nH]1	3.4%
12	Cc1ccc(OCCSc2n[nH]c3nc4ccccc4n23)cc1	46.5%
18	Cn1c(SCc2ccccc2C#N)nnc1-c1ccc([N+](=O)[O-])cc1	i
25	Clc1ccccc1CNc1nc2ccccc2n1CCN1CCOCC1	i
28	O=C1OCCC1Sc1nnnn1-c1ccccc1 (stereo not given)	1.6%
30	COc1cc(NC(=S)NC(C)c2cn(C)nc2C)cc(OC)c1 (stereo not given)	i
38	C/C(=N\N=C1\NC(=O)C(CC(=O)Nc2ccc(Cl)cc2Cl)S1)C(C)C (stereo not given)	i
56	COc1ccc(-c2c3c(=O)n(C)c(=O)n(C)c3cn2NC(C)=O)cc1	i
57	O=C(Nc1ccc(-c2noc(-c3ccc(F)cc3)n2)cc1)c1ccncc1	i
60	CCOc1ccc(NC(=O)CSc2nnc(NC(=O)c3ccccc3C)s2)cc1	i
61	CCCc1[nH]nc2c1C(c1ccc(OC(=O)c3ccco3)cc1)C(C#N)=C(N)O2 (stereo not given)	i
64	O=C(C1CCC(Cn2c(=S)[nH]c3ccccc3c2=O)CC1)N1CCN(c2ccccc2)CC1 (stereo not given)	u
67	O=C(Nc1nnc(-c2cccc([N+](=O)[O-])c2)s1)C1CCCCC1	i
69	CCn1nnc(NC(=O)c2sc3ccccc3c2Cl)n1	3.02µg/mL*
74	Oc1ccccc1C=Nn1c(-c2ccc(Cl)cc2Cl)n[nH]c1=S	i
84	COc1ccccc1CCNC(=O)c1cnn2c(C(F)F)cc(-c3ccccc3)nc12	2.5%
